# Cruzain inh Det = blocks cruzain activity in presence of Triton detergent | P25779 | purified cruzain, Z-FR-AMC fluorescence, 0.01% Triton | Potency, µM, without a hit: max response, negative = inhibition, usual class: inhibitors | 0.43% of 200,000 active; active = well fitted curve in the direction sought with a large enough effect; inconclusive = small, poorly fitted or top-dose-only effect, or another doubt; inactive = no such curve, though single readings can be large; an effect the other way counts as inactive or inconclusive;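 note: plate controls were neutral wells for no effect and buffer without enzyme for full effect; nearly all actives have a fitted effect of over 40% in size; top concentration of the series not given in the record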
# Target sequence (P25779 123-467 limits assumed): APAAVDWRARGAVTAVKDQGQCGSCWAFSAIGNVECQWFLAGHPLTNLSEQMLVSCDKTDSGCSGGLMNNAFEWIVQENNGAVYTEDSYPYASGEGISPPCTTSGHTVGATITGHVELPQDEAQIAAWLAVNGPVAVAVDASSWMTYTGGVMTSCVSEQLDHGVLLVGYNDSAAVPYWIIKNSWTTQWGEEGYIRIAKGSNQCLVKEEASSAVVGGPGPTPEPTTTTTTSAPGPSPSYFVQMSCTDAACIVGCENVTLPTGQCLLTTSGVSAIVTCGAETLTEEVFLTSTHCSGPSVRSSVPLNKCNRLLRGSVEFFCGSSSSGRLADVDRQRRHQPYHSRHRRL
#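 Detergent-containing arm of a paired screen for aggregation-based inhibition: 0.01% Triton X-100 present. Cruzain at 1.5 nM cleaved 2 uM Z-FR-AMC at pH 5.5 with 5 mM DTT; AMC fluorescence gain over 60 s measured activity.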
# RE007 growth inh = less growth of the S. pombe RE007 Vpr strain. S. pombe RE007 Vpr strain, BacTiter-Glo ATP luminescence, 24 h; control for the full effect not named in the record. Potency, µM (titrated, usually from 92.2 µM), inactives show top-dose activity change, negative = less growth. 0.21% of 360,000 active; active = well fitted falling curve with a large enough effect; inconclusive = small, poorly fitted or top-dose-only effect; inactive = no such curve, though single readings can be large or run the other way;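 note: % is set by controls: 0 for no effect and ±100 for the full control effect; nearly all actives have a fitted effect of over 50% in size; the assay follows cell death caused by Vpr and the record does not say whether a fall means rescue or toxicity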
#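 Fission yeast RE007 carrying one integrated HIV-1 vpr copy, seeded at OD 0.01 in PMG+AL medium with 23 nL pinned compound. Grown 24 h at 30 degrees; viability read by BacTiter-Glo luminescence after 5 min.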
# Cruzain noTriton = blocks cruzain activity in detergent-free assay. P25779. purified cruzain, Z-FR-AMC fluorescence, no detergent. Potency, µM, inactives show max response, negative = inhibition, usual class: inhibitors. 2.3% of 200,000 active. AID 1476; active = well fitted curve in the direction sought with a large enough effect; inconclusive = small, poorly fitted or top-dose-only effect, or another doubt; inactive = no such curve, though single readings can be large; an effect the other way counts as inactive or inconclusive;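 note: plate controls were enzyme without inhibitor for no effect and buffer without enzyme for full effect; nearly all actives have a fitted effect of over 40% in size; top concentration of the series not given in the record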
#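 Detergent-free condition (0.00005% Triton X-100) in acetate buffer pH 5.5 with DTT. 1.5 nM enzyme and compound were pre-mixed 15 min, then 2 uM Z-FR-AMC substrate added; reaction progress from fluorescence change between first and third reads (60 s).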
# NS1 inh = influenza NS1 inhibition. AID 2326. 0.4% of 270,000 active. S. cerevisiae slowed by influenza A NS1, growth recovery by OD600. Potency, µM (top dose mostly 46.1 µM), without a hit: at the highest dose activity, positive = more growth; note: actives are rising curves; nearly all actives have a fitted effect of over 50% in size
#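 S. cerevisiae expressing influenza A NS1, grown in glucose, washed, then diluted 1:100 into pH 6.0 -URA galactose medium with 23 nl compound. Growth recovery read as OD600; NS1-free strain serves as control.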
# Marburg entry inh = inhibitors of Marburg virus binding or cell entry. Potency, µM (series often up to 37.8 µM), without a hit: at the top dose activity change, negative = inhibition, actives largely listed as inhibitors. Marburg virus pseudotyped entry inhibition, cell reporter; control for the full effect not named in the record; about a third of the inactives were read at about 46 µM. 1.8% of 300,000 active; active = well fitted inhibition curve with a large enough effect; inconclusive = small, poorly fitted or top-dose-only effect, or effect the other way; inactive = flat fitted curve, though single readings scatter; tested in HEK293 cells; about a fifth of its hits are not listed in these tables; note: % is set by controls: 0 for no effect and ±100 for the full control effect; luciferase read-out
# SARS PLpro yeast = SARS-CoV PLP inhibition in yeast; S. cerevisiae expressing SARS-CoV PLpro, growth rescue; control for the full effect not named in the record; Potency, µM (highest dose often 32.9 µM), without a hit: at the top dose activity, positive = growth rescue; 0.19% of 330,000 active; note: 0% is about no effect; nearly all actives have a fitted effect of over 55% in size; growth read by luminescence after 48 h
# 2A StopGo = FMDV 2A StopGo reporter, luciferase signal | human cells with a luciferase reporter of 2A StopGo recoding; control for the full effect not named in the record | Potency, µM (top dose mostly 57.9 µM), for inactives: at the highest dose signal change, negative = less light | 1.2% of 410,000 active | AID 1159524; active = well fitted falling curve with a large enough effect; inconclusive = small, poorly fitted or top-dose-only effect; inactive = no such curve, though single readings can be large or run the other way; tested in HEK293T cells; note: % is set by controls: 0 for no effect and ±100 for the full control effect; nearly all actives have a fitted effect of over 45% in size; luciferase light after 4 h
# LASV entry inh = inhibitors of Lassa virus binding or cell entry; 1.2% of 300,000 active; Lassa virus pseudotype entry inhibition, cell reporter; control for the full effect not named in the record; AID 540256; Potency, µM (highest dose often 37.9 µM), for inactives: at the top dose activity change, negative = inhibition, usual class: inhibitors; active means well fitted inhibition curve with a large enough effect; inconclusive means small, poorly fitted or top-dose-only effect, or effect the other way; inactive means flat fitted curve, though single readings scatter; tested in HEK293 cells; note: % is set by controls: 0 for no effect and ±100 for the full control effect; nearly all actives have a fitted effect of over 50% in size; luciferase read-out
# An asterisk follows results filed as active; ? = inconclusive; . = no result given; [ ] = dose if it differs, or a comment. Unless noted, calls come from the whole dose curve; as a rule, active means well fitted rising curve with a large enough effect; inconclusive means small, poorly fitted or top-dose-only effect; inactive means no such curve, though single readings can be large or run the other way. Potency is the fitted concentration of half-maximal effect.
SMILES,Cruzain inh Det,RE007 growth inh,Cruzain noTriton,NS1 inh,Marburg entry inh,SARS PLpro yeast,2A StopGo,LASV entry inh
COc1ccc(/C=N\NC(=O)c2ccccc2Br)cc1COc1ccccc1,.,-1.8%,.,-9.9%,.,0.8%,?,.
O=C(c1cnn2c(C(F)(F)F)cc(-c3ccc4c(c3)OCO4)nc12)N1CCCCC1,-3.6%,9.8%,-0.2%,-13.9%,?,1.8%,-4.5%,-10.3%
COc1ccc(CNc2cccnc2)c(OC)c1OC,.,-9.3%,.,.,11.0%[46.1 µM],.,3.5%,12.5%[46.1 µM]
O=C(NCc1ccco1)c1ccc(CS(=O)(=O)Cc2ccc(F)cc2)o1,-2.0%,-3.4%,-1.9%,4.2%,2.9%,-1.3%,-17.6%,-12.7%
Cc1ccc2nc(NC(=O)CSCC(=O)OCC(=O)c3ccccc3)sc2c1,-12.2%,-0.7%,1.5%,-7.9%,?,24.7%,?,5.8µM*
O=[N+]([O-])c1ccc(NCCCO)c(S(=O)(=O)N2CCOCC2)c1,.,22.3%,.,.,-16.3%,0.4%,4.7%,16.7%
Cc1ccsc1/C=N/NC(=O)Cc1ccc([N+](=O)[O-])cc1,.,0.6%,.,.,-25.8%[46.1 µM],.,-10.0%,0.7%
COc1ccccc1Oc1ccnc2cc(Cl)ccc12,.,-20.7%,.,-45.8%,?,-28.9%,-18.7%,?
Cc1nn(Cc2c(Cl)cccc2Cl)c(Cl)c1/C=N/NC(=O)c1cccnc1,-5.6%,9.4%,?,-14.3%,-15.9%,-4.0%,-16.8%,10.5%
CCCC(=O)C1=C(N2CCCC2)CC(C)(C)C(C(=O)OC)C1=O (stereo not given),.,-24.0%,.,1.7%,2.0%[46.1 µM],-0.3%,-7.5%,10.7%[46.1 µM]
CCC(Oc1ccc(C)cc1)C(=O)Nc1ccc(S(=O)(=O)Nc2nccs2)cc1 (stereo not given),.,24.5%,.,23.8%,-22.2%[46.1 µM],2.4%,38.7%[activator],.
CCC(C)N1C(=O)/C(=C/c2ccc3c(c2)CCN3CCCCl)C(=O)NC1=S (stereo not given),-15.7%,-13.3%,14.7%,3.8%,-8.9%,-1.0%,31.6µM*,?
O=C(/C=C/c1ccccc1)Nc1nc2n(n1)C(c1ccc(Cl)cc1)C=C(c1ccccc1)N2 (stereo not given),-1.8%,.,6.8%,.,10.1%[46.1 µM],.,-19.8%,1.0%[46.1 µM]
CCCCOC(=O)CSc1nc2c(c(=O)[nH]c(=O)n2C)n1C/C=C(\C)Cl,2.7%,-19.5%,16.8%,8.6%,?,2.7%,-26.3%,-11.2%
CC(=O)N1CCN(Cc2nc3cc(NC(=O)c4cccs4)ccc3n2C)CC1,.,2.6%,.,3.5%,-6.5%[46.1 µM],-0.4%,-11.0%,-0.1%
CCN(CCCNC(=O)CC(C(=O)N1CCc2ccccc21)n1ccnc1)c1ccccc1 (stereo not given),0.9%,-18.8%,5.4%,-12.7%,1.6%,3.8%,-17.5%,-8.9%
Cc1noc(C)c1CSCC(=O)N(C)CC(=O)Nc1cccc(F)c1,.,0.5%,.,7.3%,-0.9%,4.6%,0.0%,-4.2%
COc1ccc(OCC(=O)OCc2cc(=O)n3cc(C)sc3n2)cc1,-5.0%,.,-8.4%,.,.,.,-21.4%,-6.8%[46.1 µM]
CCc1ccc(-c2nc(CSCC(=O)NC3CC3)c(C)o2)cc1,.,5.6%,.,-5.7%,5.01µM*,-1.7%,-15.8%,?
Cn1c(=N)c(S(=O)(=O)c2ccc(F)cc2)cc2c(=O)n3ccccc3nc21,31.6µM*,-22.2%,?,2.5%,?,-0.8%,-9.7%,-14.3%
COc1ccc(-c2noc(CCCC(=O)NC3CCCC3)n2)cc1,.,-17.3%,.,-6.0%,?,-0.3%,?,?
S=C(NCCC(c1ccccc1)c1ccccc1)Nc1ccc(Cl)cc1,2.4%,2.0%,?,-59.3%,-29.5%,-24.1%,.,?
Cc1ccc(C)c(NC(=S)N(C)C)c1,.,?,.,-0.2%,-0.1%[46.1 µM],0.2%,-19.2%,2.0%
Cc1ccc(C)c(-n2nnc(-c3nc(-c4ccc(Cl)cc4)no3)c2N)c1,0.2%,.,3.1%,.,.,.,31.7%[activator],16.2%[46.1 µM]
Cc1cc(C)cc(NC(=O)c2cc3c(=O)n(Cc4ccco4)ccc3nc2C)c1,-1.8%,.,-2.2%,.,.,.,-24.5%,19.1%[46.1 µM]
O=C(COC(=O)Cc1ccc(Br)cc1)Nc1c(F)c(F)c(F)c(F)c1F,-8.6%,2.2%,-18.5%,-10.2%,?,8.5%,-12.1%,4.7%
Cn1c(SCc2ccccc2)nnc1-c1c[nH]c2ccccc12,2.4%,-7.5%,5.4%,-15.0%,.,-5.1%,35.7%[activator],.
O=C1CC(N2CCC(O)CC2)C(=O)N1c1ccc(Br)cc1 (stereo not given),1.1%,?,-2.9%,-185.2%,-12.9%[46.1 µM],-17.0%,-17.0%,1.5%
Cc1cccc(C)c1OCC(=O)Nc1ccc2c(c1)OCCO2,.,-14.7%,.,-9.7%,.,-3.5%,9.9%,.
COc1cccc2cc(-c3nc4ccc(C)cc4[nH]3)c(=O)oc12,1.2%,.,-4.9%,.,.,.,45.1%[activator],19.9%[46.1 µM]
COc1ccccc1OCC(=O)N1CCN(C(=O)COc2ccccc2OC)CC1,.,5.2%,.,0.1%,8.3%[46.1 µM],-0.9%,-16.2%,.
CN1CCN(C(=O)Nc2cccc(Cl)c2)c2cccnc21,-17.7%,.,-29.1%,.,1.5%[46.1 µM],.,-2.5%,4.8%[46.1 µM]
Cc1ccc(N(C(=O)c2csnn2)C(C(=O)NC2CCCCC2)c2ccco2)cc1 (stereo not given),.,11.0%,.,13.9%,?,9.3%,-2.7%,?
Cc1cccc(C(=O)Oc2ccc(/C=N/NC(=O)Cc3ccc([N+](=O)[O-])cc3)cc2)c1,-4.5%,-18.6%,4.1%,-0.5%,6.4%,-3.4%,6.9%,?
Cc1ccc(C(=O)N2CCN(c3ccc(NC(=S)NC(=O)Cc4ccccc4)cc3)CC2)cc1,-5.8%,-0.1%,?,?,?,2.1%,-8.5%,-17.5%
Cc1ccc(-n2c(=O)c3c(C)c(C)sc3n(CC(=O)NCc3ccccc3)c2=O)cc1C,-0.5%,.,2.0%,.,-0.1%[46.1 µM],.,-13.8%,1.9%[46.1 µM]
Clc1ccc(CSc2nnnn2-c2ccc3c(c2)OCO3)c(Cl)c1,0.7%,-11.5%,-3.1%,1.9%,-6.2%,-2.1%,0.0%,-19.3%
O=C1NC2(CCCCC2)C(=O)N1CCS(=O)(=O)Oc1ccccc1,-1.5%,-15.6%,5.4%,-6.3%,8.7%,-11.2%,0.0%,0.3%
CCC1C(=O)CC(c2ccc([N+](=O)[O-])cc2)NC1c1ccc([N+](=O)[O-])cc1 (stereo not given),.,-7.7%,.,-1.9%,?,0.6%,-14.6%,?
Oc1ccc(Cl)cc1/C=N/c1nc2ccccc2[nH]1,-16.3%,-13.4%,-7.5%,2.4%,23.6%,-6.0%,49.4%[activator],-23.6%[14.3 µM]
O=C1CC(N2CCN(c3ccccc3)CC2)C(=O)N1c1ccc2c(c1)OCO2 (stereo not given),.,-11.2%,.,5.0%,36.8%[46.1 µM],-1.6%,2.3%,1.2%
O=C(NCC1CCCO1)c1cc2n(n1)C(C(F)(F)F)CC(c1ccc(F)cc1)N2 (stereo not given),2.7%,-1.3%,?,-0.8%,-16.8%,1.2%,-7.2%,-9.5%
Cc1cc(C)c2nc(C)cc(Nc3cccc(C(=O)O)c3)c2c1,-21.2%,.,-7.0%,.,.,.,-4.2%,3.8%[46.1 µM]
COc1ccccc1-n1c(SCC(=O)O)nc2c(sc(=S)n2-c2ccc(C)c(C)c2)c1=O,.,6.4%,.,?,.,-0.3%,-7.9%,.
Cc1ccc(-n2ncc3c2CC(C)(C)CC3NC(=O)C2CCOCC2)cc1 (stereo not given),.,22.8%,.,2.2%,-4.5%,?,10.6%,-2.7%
Cc1c(C(=O)NCCc2ccc(Cl)cc2)sc2nc3n(c(=O)c12)CCCC3,-2.6%,.,-2.6%,.,.,.,-20.6%,?
COc1ccc(CN2C(=O)CS/C2=N/N=C/c2ccccc2)cc1,.,-11.1%,.,-9.3%,.,-0.6%,13.9%,.
CCOc1ccc(NC(=O)n2ncc3c(C)cccc32)cc1,.,-1.6%,.,1.3%,.,-0.1%,75.0%[activator],.
Cc1cc(=O)n2nc(N3CCCC(C(=O)NC4CCCCC4C)C3)sc2n1 (stereo not given),.,-3.5%,.,3.6%,.,-2.4%,-6.5%,.
O=[N+]([O-])c1ccc(N2CCN(Cc3ccccc3)CC2)c(S(=O)(=O)N2CCOCC2)c1,-0.4%,4.0%,3.0%,4.7%,-8.9%,5.3%,-18.7%,-0.1%
COCCCNS(=O)(=O)c1ccc(C)cc1,.,-5.5%,.,-1.5%,12.1%[46.1 µM],0.2%,42.6%[activator],17.5%[46.1 µM]
CC(=O)c1ccc(NC(=S)NNC(=O)c2ccncc2)cc1,-0.1%,-7.1%,-10.1%,-3.5%,11.0%,-11.9%,11.6%,2.4%
CCc1ccc(C2C(C(=O)O)c3ccccc3C(=O)N2C)cc1 (stereo not given),4.4%,-4.3%,0.7%,1.6%,10.6%,0.7%,.,6.1%
CCOC(=O)C1CCCN(C(c2ccccn2)c2c(C)[nH]c3ccccc23)C1 (stereo not given),.,?,.,.,2.2%[46.1 µM],2.5%,5.4%,-2.8%
NNc1nc2c(-c3ccc(F)cc3)nnn2c2ccccc12,.,0.2%,.,.,12.6%[46.1 µM],-3.7%,27.6%,-24.2%
OC(COc1ccc2ccccc2c1)Cn1cncn1 (stereo not given),-0.7%,-2.5%,-2.7%,7.4%,12.1%,-7.7%,35.4%[activator],0.0%
Cc1ccccc1C(=O)Nc1c2c(nc3ccccc13)CCCC2,1.4%,.,17.8%,0.7%,-12.1%,2.9%,-9.8%,-15.7%
